LANA-H2A inh – blocks KSHV LANA binding to histone H2A/H2B; inhibition, % (no concentration beside the values); Q9QR71; cell-free LANA-H2A/H2B peptide, fluorescence polarization; actives 0.6% (n = 320,000); AID 2629; in the data active = inhibition mostly above about 10%, no sharp cut-off; inactive = mostly below about 6.7%;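 also: stock transfer was 7.5 nL into about 10 µL; 0% = median of vehicle wells and 100% = median of positive control wells; one replicate is shown; the record names a cut of 25% in any replicate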
Bfl-1 A1 inh – inhibitors of the anti-apoptotic protein A1, read as caspase activation; caspase activation, % (concentration not given with the values); actives 0.066% (n = 330,000); MEF A1-2A-BIM cells, Caspase-Glo 3/7 luminescence, 3 h; percent of clofoctol response, vehicle zero;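 active = over half of replicate activation scores above 10%, or exactly half above 10 with the replicate mean above 10; inconclusive = replicate mean below 10 yet half the replicates above 10; inactive = over half of replicates below 10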;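 also: wells of about 30 µL received 50 nL stock; many hits fall short of the cut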
UCH37 DUB inh – human UCH37 deubiquitinating enzyme inhibition | purified proteasome/UCH37, Ub-AMC cleavage fluorescence | actives 0.33% (n = 330,000) | Q9Y5K5 | inhibition, % (test concentration not listed) | AID 588478;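 active = mean of two replicates above 20%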;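 also: 0% = compound-free wells with enzyme and 100% = wells lacking proteasome; stock transfer was 100 nL into about 20 µL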
Target sequence (Q9Y5K5 whole entry, looked up): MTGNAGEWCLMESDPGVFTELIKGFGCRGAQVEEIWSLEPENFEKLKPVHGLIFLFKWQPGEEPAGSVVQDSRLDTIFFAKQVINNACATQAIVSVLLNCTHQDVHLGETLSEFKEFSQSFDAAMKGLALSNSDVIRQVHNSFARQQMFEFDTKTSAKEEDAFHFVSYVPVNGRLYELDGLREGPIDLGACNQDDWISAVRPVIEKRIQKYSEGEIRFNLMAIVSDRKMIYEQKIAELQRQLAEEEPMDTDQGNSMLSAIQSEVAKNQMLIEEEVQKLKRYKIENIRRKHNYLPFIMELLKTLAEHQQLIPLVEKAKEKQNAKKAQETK
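Schedule: 30 min plus 25 min, room temperature / Material: human UCH37 within purified proteasomes / Technique: AMC fluorescence intensity at 355/460 nm / Buffer or medium: pH 7.4 Tris-HCl (50 mM) with ovalbumin, ATP-MgCl2, DTT / Controls: wells without proteasome as full block, compound-free enzyme plus substrate as uninhibited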
T cruzi inh – blocks replication of Trypanosoma cruzi | T. cruzi beta-gal in NIH3T3, luminescence, 90 h | inhibition, % (concentration not given with the values) | actives 1.4% (n = 300,000);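 active = mean inhibition across valid replicates above about 55%, limit read from the data; inconclusive = mean below that limit but half or more replicates reach it; inactive = mean below it, under half of replicates reach it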;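 also: signal also drops with host cell toxicity which is not excluded here; 0% = plate median of DMSO wells and 100% = zero luminescence signal; higher percent means less beta-gal luminescence so fewer parasites; stock transfer was 50 nL into about 50 µL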
Calb FLC – affects C. albicans growth with fluconazole; C. albicans CaCi-2 (fluconazole-resistant clinical isolate) + fluconazole, Alamar Blue growth, 48 h; growth inhibition, % (test concentration not listed); actives 0.57% (n = 300,000);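 active = most replicates above 75%; inconclusive = exactly half above 75%; inactive = most below 75%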;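 also: all wells also contain fluconazole at 8 µg/ml as a sub-toxic cotreatment; 0% = median of DMSO wells and 100% = median of geldanamycin control wells; wells of about 8 µL received 7.5 nL stock; the first replicate is given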
Beta2AR agonist – human beta-2 adrenergic receptor agonism by FAP | P07550 | Am2.2-beta2AR cells, FAP receptor internalization, flow cytometry; reference of the scale not given here | response, % (test concentration not listed) | actives 0.43% (n = 340,000) | AID 504454;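 active = response above a set limit, near 3 SD of response in nonfluorescent compounds, cut at about 42% in these data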;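 also: stock transfer was 100 nL into about 11 µL; a reference agonist was the positive control; negative values mostly stem from fluorescent compounds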
Target sequence (P07550 whole entry, looked up): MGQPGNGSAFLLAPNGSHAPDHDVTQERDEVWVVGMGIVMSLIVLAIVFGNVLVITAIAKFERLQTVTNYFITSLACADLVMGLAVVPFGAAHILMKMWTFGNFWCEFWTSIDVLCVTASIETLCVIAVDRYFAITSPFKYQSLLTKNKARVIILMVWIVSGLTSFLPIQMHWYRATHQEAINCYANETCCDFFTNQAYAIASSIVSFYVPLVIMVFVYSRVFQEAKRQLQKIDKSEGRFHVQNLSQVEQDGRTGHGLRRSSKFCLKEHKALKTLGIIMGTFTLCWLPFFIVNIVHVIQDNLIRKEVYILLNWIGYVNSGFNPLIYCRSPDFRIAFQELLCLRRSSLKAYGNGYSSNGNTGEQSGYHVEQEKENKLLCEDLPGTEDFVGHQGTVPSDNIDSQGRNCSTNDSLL
Beta cell apopt – blocks beta cell apoptosis; AID 435005; protection from apoptosis, % (test concentration not listed); INS-1E cytokine-induced death, ATP luminescence, 48 h; percent of positive-control rescue, neutral wells zero; actives 0.8% (n = 300,000);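 active = all replicates at 75% or more, or half of them and the mean; inconclusive = half reach 75% but not the mean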;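 also: 0% = cytokine-treated negative control wells and 100% = positive control rescue; higher means more ATP so stronger rescue from cytokine killing; wells of about 40 µL received 100 nL stock; the first replicate is given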
RanGTP-Imp inh – inhibitors of RanGTP-importin-beta interaction, primary screen, biochemical, FRET, CFP-Ran, YFP-importin-beta, homogeneous; cell-free CFP-Ran/YFP-importin-beta FRET ratio; inhibition, % (test concentration not listed); actives 1.1% (n = 300,000);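 active = most replicates above 15%; inconclusive = exactly half above 15%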;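 also: 0% = DMSO wells and 100% = Ran loaded with GDP instead of GTP; wells of about 40 µL received 100 nL stock; the first replicate is given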
* marks the source's active call; other numbers are inactive results; u = inconclusive; x = not tested or not shown; & = joins results of further samples.

Results follow in this order: T cruzi inh | Bfl-1 A1 inh | Calb FLC | RanGTP-Imp inh | UCH37 DUB inh | Beta cell apopt | LANA-H2A inh | Beta2AR agonist
> Cc1cc(NC(=O)c2cncc(Br)c2)n(-c2ccccn2)n1
 : -3 | x | -11 | 1.6 | 2.6 | x | x | -7
> CC12COC3(C(N)=O)CC1CCC32C (stereo not given)
 : -12 | -0.2 | -9 | 3.6 | 2.8 | -3 | 2.5 | 9
> Nc1nnc(N2CCc3ccccc32)s1
 : -3 | 1.1 | -2 | 4.8 | 5.1 | -7 | 0.4 | 0
> COc1ccccc1-c1oc2ccccc2c1-c1ccccc1OC
 : x | -0.2 | x | x | -0.9 | 5 | -1.3 | 5
> C=CCn1c(CCc2cc(C(C)(C)C)c(O)c(C(C)(C)C)c2)n[nH]c1=S
 : 31 | 0.1 | -44 | -1.8 | 0.7 | x | -3.5 | 11
> CNCCCOc1ccc2c(c1)CCC2
 : 6 | -0.3 | 3 | -2.8 | x | -8 | -1.1 | -4
> COC(=O)c1ccc(N=NNc2ccc(C(=O)OC)cc2)cc1
 : -15 | 0.5 | 4 | 3.8 | 2.7 | 2 | 4.5 | 3
> COc1cc(NS(=O)(=O)c2ccc(NC(=O)COc3ccccc3Cl)cc2)nc(OC)n1
 : -3 | 0.4 | 17 | 2.0 | 4.8 | 1 | 3.3 | x
> CCCOc1ccc(C(=O)CCC(=O)NNC(=O)c2ccncc2)cc1
 : -10 | -1.0 | -2 | -4.3 | 2.1 | -5 | -0.2 | -2
> CCc1c(C)c2c(C)nn(-c3ccccc3)c2oc1=O
 : 3 | -0.1 | 1 | 2.1 | -4.8 | 2 | -5.1 | -5
> CCCCOC(=O)C1[C@H]2C(=O)N(Cc3cccs3)C[C@]23C=C[C@H]1O3 (stereo not given in full)
 : -6 | -0.3 | -2 | -3.5 | -1.6 | -12 | 1.4 | 0
> N=c1c(S(=O)(=O)c2ccc(Cl)cc2)cc2c(=O)n3ccccc3nc2n1C1CCCCC1
 : 51 | -2.7 | -10 | u | -4.1 | -3 | 2.9 | 2
> COc1ccc(CCN=C(N)NS(=O)(=O)c2ccccc2)cc1OC
 : -3 | 1.0 | -13 | 5.9 | -1.5 | x | 2.4 | -10
> CCC(C)C(NC(=O)C1CCC(C)CC1)C(=O)NC(C(=O)OC)C(C)C (stereo not given)
 : x | 0.4 | -1 | 1.9 | 1.6 | -7 | -2.1 | 4
> Cc1[nH]n(-c2c(Cl)cc(Cl)cc2Cl)c(=O)c1C=Nc1ccc(S(=O)(=O)N2CCOCC2)cc1
 : -4 | -0.2 | 10 | -2.5 | 1.2 | -8 | -4.6 | 3
> CC1CCN(S(=O)(=O)c2ccc(C(=O)Nc3nnc(-c4ccco4)o3)cc2)CC1
 : -19 | 0.2 | 21 | 1.4 | 7.5 | 9 | 2.4 | 51*
> CCOC(=O)Cc1csc(NC(=O)CSc2nnc(-c3cccnc3)n2Cc2ccco2)n1
 : 1 | -0.2 | -5 | -3.5 | 1.8 | -3 | 3.4 | 2
> Cc1cc(=O)c2cc(Br)ccc2[nH]1
 : -5 | -0.6 | 3 | -4.4 | 2.8 | 44 | 0.8 | 0
> O=C(CC(=O)N/N=C/c1ccc(C(=O)O)cc1)NCCc1ccccc1
 : 10 | 2.4 | 7 | -8.5 | x | -4 | 3.2 | -3
> O=C(c1cc(-c2ccco2)nc2ccccc12)N1CCN(c2ccc(F)cc2)CC1
 : 14 | -0.2 | 10 | -2.9 | -47 | -7 | 1.8 | -10
> Cn1c(=O)c2c(nc(NCCCN3CCOCC3)n2Cc2cccc(Cl)c2)n(C)c1=O
 : -4 | -0.1 | -6 | -2.1 | 5.0 | x | 5.9 | -9
> O=C(Nc1ccc(Cl)c(S(=O)(=O)N2CCCCC2)c1)c1cnccn1
 : x | -0.6 | x | x | 6.3 | -1 | -12 | -1
> Cc1cc(C)cc(NC(=O)CSc2nc(=O)n(CCN3CCOCC3)c3c2CCCC3)c1
 : 15 | 0.0 | 4 | -2.1 | 0.7 | x | -2.2 | 1
> COc1ccccc1N(C)C(=O)c1cc(S(=O)(=O)N2CCc3ccccc32)cn1C
 : 9 | 0.7 | -2 | 5.3 | 2.3 | -1 | -1.7 | 2
> COc1ccccc1C(=O)NC(=O)COC(=O)CCNS(=O)(=O)c1ccccc1
 : -6 | 0.4 | 2 | -1.6 | -3.4 | -6 | -0.8 | -2
> FC(F)(F)c1ccc(-n2ccnc2)nc1
 : 0 | 0.8 | -1 | -1.1 | 0.7 | -3 | 3.1 | 7
> Cc1nc2c(-c3ccc(F)cc3)c(C)[nH]n2c(=O)c1Cl
 : -12 | 0.8 | -6 | 0.9 | -9.5 | x | -4.7 | -4
> Cc1ccc(C(=O)c2cc3ccccc3o2)cc1C
 : 5 | -7.9 | -3 | 6.4 | 3.1 | 1 | 6.2 | -5
> COc1ccc(/C=C/C(=O)Nc2nc(C)c(C(=O)N(C)C)s2)cc1OC
 : -7 | 0.3 | -4 | -0.3 | -15 | -4 | -6.8 | 7
> COc1cc(/C=C2\SC(=S)N(Nc3ncc(C(F)(F)F)cc3Cl)C2=O)cc(OC)c1OC
 : -5 | 0.1 | 3 | 1.4 | 4.3 | 9 | 0.7 | 14

The final 3 records of the section before open the next one:
Results follow in this order: T cruzi inh | Bfl-1 A1 inh | Calb FLC | RanGTP-Imp inh | UCH37 DUB inh | Beta cell apopt | LANA-H2A inh | Beta2AR agonist
> Cc1ccc(C(=O)c2cc3ccccc3o2)cc1C
 : 5 | -7.9 | -3 | 6.4 | 3.1 | 1 | 6.2 | -5
> COc1ccc(/C=C/C(=O)Nc2nc(C)c(C(=O)N(C)C)s2)cc1OC
 : -7 | 0.3 | -4 | -0.3 | -15 | -4 | -6.8 | 7
> COc1cc(/C=C2\SC(=S)N(Nc3ncc(C(F)(F)F)cc3Cl)C2=O)cc(OC)c1OC
 : -5 | 0.1 | 3 | 1.4 | 4.3 | 9 | 0.7 | 14
> CC1=C(C#N)C(=O)N(C2CCS(=O)(=O)C2)C(=O)/C1=C\c1ccco1 (stereo not given)
 : -5 | -1.2 | 1 | -3.0 | x | 3 | 14 | x
> CC(C)CN1CCN(Cc2cccc3cccnc23)CC1CCO (stereo not given)
 : 3 | 0.3 | 5 | 0.2 | 2.7 | -10 | 0.4 | 5
> CC1Cc2nc(SCC(=O)N3CCc4ccccc43)n(C)c(=O)c2S1 (stereo not given)
 : -15 | 1.1 | 7 | 2.9 | 5.7 | -27 | -1.3 | -15
> COc1ccc(NC(=O)c2c(C(F)(F)F)nn(C)c2Cl)cc1
 : 8 | 0.1 | -18 | 0.6 | 4.0 | x | -12 | -2
> Nc1nc2c(s1)COc1ccccc1-2
 : -19 | 0.7 | -9 | -1.7 | 4.2 | -4 | 2.4 | 0
> Cn1c(=O)cc(OCCCC(=O)NCc2ccco2)c2ccccc21
 : -3 | 0.7 | 4 | -1.0 | -2.3 | -1 | 2.8 | -2
> O=C(N/C(=C/c1cccc([N+](=O)[O-])c1)C(=O)N1CCCCC1)c1cccs1
 : -6 | 0.4 | 31 | 3.5 | 1.3 | -5 | 4.6 | -6
> COCCn1c(N)c(N(Cc2ccccc2)C(=O)C2=COCCO2)c(=O)[nH]c1=O
 : -17 | -1.3 | 2 | 3.7 | 0.2 | -2 | 0.6 | 4
> CCn1ccc(C(=O)Nc2ncc(C)s2)n1
 : -12 | -3.8 | 6 | 0.0 | 2.2 | -1 | 2.4 | 1
> CC(C)(C)c1cc(C(=O)N/N=C/c2ccncc2)n[nH]1
 : -13 | 2.6 | 24 | 4.0 | x | 0 | -5.8 | -12
> CN(Cc1ccccc1)Cc1nc2c([nH]1)c(=O)n(C)c(=O)n2C
 : -5 | -1.8 | 15 | -2.4 | 5.0 | -7 | 1.4 | 3
> COc1ccc(CCNC(=O)c2cc3cc(F)ccc3nc2C)cc1OC
 : -9 | -0.5 | 1 | 2.4 | 4.1 | x | 0.2 | -1
> CCOC(=O)c1c(C)[nH]c(C2=NNC(=Nc3cccc(Cl)c3)SC2)c1C
 : 41 | 0.4 | 31 | -0.7 | x | 32 | 0.0 | x
> COc1ccc(NC(=O)c2cc(-c3ccc(OC)c(OC)c3)nc3ccccc23)c(OC)c1
 : 11 | 0.0 | 10 | 1.7 | 1.3 | 9 | 3.7 | 10
> Cc1nnc(-c2cccc(Br)c2)c2cn(-c3ccc(Br)cc3)nc12
 : 54 | 0.1 | 23 | 9.7 | 6.2 | 0 | -3.7 | -2
> N#Cc1c(N)nc2c(c1N)CC(=O)N2c1ccccc1-c1ccccc1
 : -5 | -0.3 | 12 | 8.7 | 4.0 | -4 | 2.0 | 5
> O=C1Nc2ccc(Cl)cc2C(C#CC2CC2)(C(F)(F)F)O1 (stereo not given)
 : 13 | -0.2 | -5 | 7.3 | 0.4 | 5 | -11 | -1
> S=C(NCc1ccccc1)N1CCN(C(=S)NCc2ccccc2)CC1
 : x | -0.3 | x | x | -2.1 | -2 | 4.0 | -13
> O=C(CN1CCN(S(=O)(=O)c2ccccc2)CC1)Nc1ccc([N+](=O)[O-])cc1
 : 2 | -1.2 | 6 | 3.1 | 5.6 | 1 | 12 | 2
> CN(C(=O)CSc1nc(-c2ccccc2)c(-c2ccccc2)o1)C1CCS(=O)(=O)C1 (stereo not given)
 : 7 | 0.8 | 10 | 0.4 | 0.9 | -11 | -0.9 | -10
> C#CCOc1ccc(/C=C2/C(=O)ON=C2C)cc1OCC
 : -16 | 1.5 | 0 | -0.6 | 2.6 | -12 | -1.9 | -2
> COc1ccccc1N1N=C(C(=O)c2ccccc2)C2C(=O)N(c3ccc(Br)cc3)C(=O)C21 (stereo not given)
 : -11 | 0.6 | 5 | -134 | -27 | -4 | -5.4 | 1
> CN(C)CCCN(C(=O)c1ccc(S(=O)(=O)N2CCCCCC2)cc1)c1nc2ccc(Br)cc2s1
 : 23 | 1.6 | 1 | -0.7 | 4.4 | 8 | -5.4 | 37
> O=C(O)CCCNC(=O)/C(=C\C=C\c1ccccc1)NC(=O)c1ccccc1Cl
 : -23 | -0.2 | 1 | 6.0 | 13 | -2 | 1.5 | 0
> CCCCCC(=O)N1CCN(CCN=CC2=C(O)CC(c3ccc(OC)cc3)CC2=O)CC1 (stereo not given)
 : -5 | 1.5 | -9 | -5.8 | 1.8&4.4 | 0 | -0.4 | 0&3
> CCn1c(SCc2ccc(F)cc2)nnc1-c1nn(-c2ccccc2)ccc1=O
 : 9 | 0.0 | -4 | -0.8 | 3.1 | 2 | -4.0 | -13
> O=C(c1cccc(NC2=NC3CS(=O)(=O)CC3S2)c1)N1CCN(c2cccc(Cl)c2)CC1 (stereo not given)
 : 2 | -0.9 | 1 | 5.1 | 5.4 | 0 | -4.2 | 2
> Cc1cccc(N(Cc2ccc(Cl)cc2)S(C)(=O)=O)c1
 : 0 | 0.0 | -8 | 1.1 | 3.0 | 2 | -0.1 | 5

Assay outcomes deposited in PubChem BioAssay by several laboratories.
